# Screening data (PubChem)
# AF4-AF9 inh: MLL-AF4/AF9 protein interaction inhibition; P42568; AlphaScreen, biotin-AF4 peptide binding to FLAG-AF9; inhibition, % at 10 µM; hit rate 0.47% among 350,000;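 active means every replicate reaching a set inhibition limit, whatever the replicate mean, cut at about 25% in these data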;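 further: 0% = plate neutral control median and 100% = total signal loss; the record names both 10 and 1 µM as test concentration; the first replicate is given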
# Target sequence (P42568 whole entry, looked up): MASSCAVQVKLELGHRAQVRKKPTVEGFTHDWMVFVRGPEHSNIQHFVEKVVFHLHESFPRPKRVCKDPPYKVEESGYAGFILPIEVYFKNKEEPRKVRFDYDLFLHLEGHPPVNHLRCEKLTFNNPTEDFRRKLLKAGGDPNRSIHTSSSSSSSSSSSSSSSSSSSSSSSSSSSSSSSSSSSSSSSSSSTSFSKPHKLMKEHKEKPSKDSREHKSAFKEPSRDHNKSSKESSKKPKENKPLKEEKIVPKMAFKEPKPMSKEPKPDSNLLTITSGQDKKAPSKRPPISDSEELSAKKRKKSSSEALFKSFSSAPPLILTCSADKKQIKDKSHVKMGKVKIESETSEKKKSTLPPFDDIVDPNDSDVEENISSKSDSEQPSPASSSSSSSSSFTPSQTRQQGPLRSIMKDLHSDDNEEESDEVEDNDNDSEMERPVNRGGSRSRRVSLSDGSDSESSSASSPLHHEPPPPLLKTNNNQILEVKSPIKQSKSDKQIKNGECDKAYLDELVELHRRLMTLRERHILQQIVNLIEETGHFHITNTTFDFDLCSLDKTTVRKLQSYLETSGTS
# FGF22 binding: FGF22 (human) thermal shift binding; calls only at 9.99 µM; hit rate 1.5% among 340,000; Q9HCT0; recombinant FGF22 thermal shift, SYPRO orange fluorescence; percent of sucrose octasulfate shift, DMSO zero; AID 651658;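 active means melting point raised past a set limit in the mean and every replicate; three in four hits are not shown here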
# Target sequence (Q9HCT0 whole entry, looked up): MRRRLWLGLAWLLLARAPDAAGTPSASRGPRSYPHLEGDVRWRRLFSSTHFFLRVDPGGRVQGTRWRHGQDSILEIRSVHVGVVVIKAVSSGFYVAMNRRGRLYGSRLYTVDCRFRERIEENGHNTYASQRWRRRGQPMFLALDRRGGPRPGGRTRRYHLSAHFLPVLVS
# Active calls of the source: *; i = inactive. A portion of the library. The share of hits here may be higher or lower than overall.
SMILES,AF4-AF9 inh,FGF22 binding
C[C@@H]1CN([C@H](C)CO)C(=O)c2cc(NC(=O)CCCCCC(=O)Nc3ccccc3N)ccc2O[C@@H]1CN(C)C,0.5,i
C[C@@H]1CN([C@H](C)CO)C(=O)c2cc(NC(=O)CCCN(C)C)ccc2O[C@H]1CN(C)S(=O)(=O)c1ccc(F)cc1,-1.3,i
O=C(Nc1ccccc1)N[C@@H](Cc1ccccc1)Cn1cc(CN2C(=O)COC[C@H]2c2ccccc2)nn1,1.4,i
CCCC(=O)Nc1ccc2c(c1)C(=O)N(C)[C@H]1CC[C@@H](CC(=O)NCc3ccccc3Cl)O[C@H]1CO2,2.2,i
CCCC#Cc1ccc2c(c1)O[C@@H](CN(C)C(=O)NCCC)[C@@H](C)CN([C@H](C)CO)S2(=O)=O,1.2,i
C[C@@H]1CN([C@@H](C)CO)C(=O)c2cc(NC(=O)Cc3ccccc3)ccc2O[C@H]1CN(C)S(=O)(=O)c1ccc(F)cc1,-2.4,i
C[C@H](CO)N1C[C@H](C)[C@H](CN(C)Cc2ccccc2)Oc2c(NS(=O)(=O)c3ccccc3)cccc2C1=O,-3.1,i
CN(C)C(=O)C[C@H]1CC[C@@H]2[C@H](COC[C@H](O)CN2CC2CCCCC2)O1,-0.4,i
C[C@H]1CN([C@@H](C)CO)C(=O)c2cc(NC(=O)CCC(F)(F)F)ccc2O[C@@H]1CN(C)C(=O)Nc1ccc(F)cc1,-0.9,i
Cc1noc(C)c1NC(=O)Nc1ccc2c(c1)C(=O)N([C@H](C)CO)C[C@@H](C)[C@@H](CN(C)Cc1ccc(C(=O)Nc3ccccc3N)cc1)O2,1.8,i
CC(=O)N(C)C[C@@H]1Oc2ncc(C#C[C@@H](C)O)cc2C(=O)N([C@@H](C)CO)C[C@H]1C,-6.9,i
NCC[C@@H]1CC[C@@H](NS(=O)(=O)c2ccc(Cl)cc2)[C@@H](CO)O1,5.6,i
COc1cccc(NC(=O)N(C)C[C@H]2Oc3ncc(C#Cc4cccnc4)cc3C(=O)N([C@H](C)CO)C[C@@H]2C)c1,-1.6,i
COc1cccc(-c2ccc3c(c2)O[C@H](CN(C)C(C)=O)[C@H](C)CN([C@@H](C)CO)S3(=O)=O)c1,-1.5,i
CCNC(=O)C[C@@H]1CC[C@@H]2[C@H](COc3ccc(NC(=O)Nc4ccccc4OC)cc3C(=O)N2C)O1,-0.3,i
C[C@@H]1CN([C@H](C)CO)C(=O)Cc2cc(NC(=O)Cc3ccccc3)ccc2O[C@@H]1CN(C)S(C)(=O)=O,-2.4,i
COc1ccc(NC(=O)Nc2ccc3c(c2)C(=O)N([C@@H](C)CO)C[C@H](C)[C@H](CN(C)Cc2ccccc2)OCCCC[C@@H](C)O3)cc1,12,i
O=C(NCC[C@H]1CC[C@H](NS(=O)(=O)c2ccccc2)[C@@H](CO)O1)c1ccc2c(c1)OCO2,-0.9,i
COc1ccc(NC(=O)N(C)C[C@H]2Oc3c(NS(=O)(=O)c4cn(C)cn4)cccc3C(=O)N([C@H](C)CO)C[C@H]2C)cc1,-2.5,i
O=C(C[C@@H]1C[C@@H]2c3cc(NC(=O)CC4CC4)ccc3O[C@@H]2[C@@H](CO)O1)NCc1ccc2c(c1)OCO2,0.4,i
C[C@H]1CN([C@@H](C)CO)C(=O)c2cc(NS(=O)(=O)c3ccc(F)cc3)ccc2O[C@H]1CN(C)CC1CCCCC1,-3.8,i
C[C@H]1CN([C@@H](C)CO)C(=O)c2cc(NC(=O)c3ccncc3)ccc2O[C@H]1CN(C)CC1CCCCC1,-3.3,i
CN1[C@H](C(=O)NCC(F)(F)F)[C@@H](CO)[C@@H]2Cn3c(ccc(-c4ccccc4F)c3=O)[C@@H]21,-0.6,i
O=C(C[C@H]1CC[C@H](NS(=O)(=O)c2ccc(F)cc2)[C@H](CO)O1)N1CCc2ccccc2C1,1.2,i
COc1ccc2c3c(n(C)c2c1)[C@H](CO)N(C(=O)c1ccccc1)CC31CN(C)C1,9.6,i
# (cont.)
SMILES,AF4-AF9 inh,FGF22 binding
CC=Cc1ccc2n(c1=O)C[C@H]1[C@H](CO)[C@@H](C(=O)NCC3CC3)N(Cc3ccncc3)[C@@H]21 (mixture of isomers),-0.6,i
COCC#Cc1ccc([C@H]2[C@@H](CO)N3CCCCN(C(=O)NC4CCCC4)C[C@@H]23)cc1,-4.1,i
Cc1noc(C)c1S(=O)(=O)N(C)C[C@@H]1OCCCC[C@@H](C)Oc2ccc(NC(=O)Nc3ccccc3)cc2C(=O)N([C@H](C)CO)C[C@H]1C,3.8,i
C[C@@H]1CN([C@H](C)CO)S(=O)(=O)c2ccc(-c3cccc(F)c3)cc2O[C@H]1CN(C)CC1CC1,4.5,i
O=C(N[C@@H]1C=C[C@H](CC(=O)N2CCOCC2)O[C@@H]1CO)c1ccc2c(c1)OCO2,-0.8,i
COc1ccccc1S(=O)(=O)N[C@H]1CC[C@@H](CCn2cc(C3CCCC3)nn2)O[C@H]1CO,-1.0,i
Cc1noc(C)c1NC(=O)N(C)C[C@@H]1Oc2cc(C#CCN(C)C)ccc2S(=O)(=O)N([C@@H](C)CO)C[C@H]1C,4.6,i
O=C(Nc1cc(F)ccc1F)N1CCCCN2[C@H](CO)[C@@H](c3ccc(-c4cncnc4)cc3)[C@@H]2C1,-4.5,i
O=C(Nc1ccccc1F)N[C@H]1CC[C@H](CCNS(=O)(=O)c2ccc(Cl)cc2)O[C@H]1CO,0.9,i
OC[C@@H]1Nc2ccc(-c3ccccc3)cc2[C@H]2[C@@H]1CCN2Cc1ccccc1F,-0.1,i
C[C@@H]1CN([C@@H](C)CO)S(=O)(=O)c2ccc(-c3ccc(F)cc3)cc2O[C@H]1CN(C)CC1CC1,0.8,i
C[C@H](CO)N1C[C@H](C)[C@@H](CN(C)S(=O)(=O)c2cccs2)Oc2ccc(NC(=O)Nc3cccc4ccccc34)cc2C1=O,-0.6,i
Cc1noc(C)c1S(=O)(=O)Nc1ccc2c(c1)C(=O)N([C@@H](C)CO)C[C@@H](C)[C@H](CN(C)S(=O)(=O)c1ccc(F)cc1)O2,0.7,i
O=C(C[C@@H]1C[C@@H]2c3cc(NC(=O)Nc4ccc(C(F)(F)F)cc4)ccc3O[C@@H]2[C@H](CO)O1)NC1CCCCC1,-1.5,i
C[C@@H]1CN([C@@H](C)CO)S(=O)(=O)c2ccc(-c3ccc(F)cc3)cc2O[C@H]1CN(C)C,1.7,i
C[C@H](CO)N1C[C@H](C)[C@H](CN(C)C(=O)C2CCCCC2)Oc2ncc(-c3cccc(F)c3)cc2C1=O,-4.1,i
O=C(c1ccncc1)N1C[C@H]2[C@@H](c3ccccc31)[C@@H](CO)N2C(=O)CN1CCOCC1,0.4,i
CC(C)C#Cc1cnc2c(c1)C(=O)N([C@@H](C)CO)C[C@H](C)[C@H](CN(C)Cc1ccccn1)O2,-2.4,i
CC(C)C[C@H]1COc2cc(Br)ccc2S(=O)(=O)N1Cc1ccc(Cl)cc1,-2.1,i
C[C@H]1CN([C@@H](C)CO)C(=O)c2cc(-c3ccc(C(=O)N(C)C)cc3)cnc2O[C@H]1CN(C)C(=O)C1CC1,-3.6,i
C[C@@H]1CN([C@@H](C)CO)C(=O)c2cc(NC(=O)Nc3cccc4ccccc34)ccc2O[C@H]1CN(C)C(=O)Nc1ccccc1,1.5,i
COC(=O)[C@@H]1[C@@H](CO)[C@@H]2Cn3c(ccc(-c4ccccc4F)c3=O)[C@@H]2N1C(=O)c1ccccn1,-12,i
CC(C)[C@@H](C)/C=C/[C@@H](C)[C@H]1CC[C@@H]2[C@]1(C)CCC1[C@]23C=C[C@]2(C[C@@H](O)CC[C@]12C)N(c1ccc(F)cn1)O3 (some centres not stated),2.5,i
O=C(C[C@H]1C=C[C@@H](NC(=O)Nc2ccc(C(F)(F)F)cc2)[C@@H](CO)O1)NCc1ccccn1,0.5,i
CC(=O)N(C)C[C@@H]1Oc2ncc(-c3cccnc3)cc2C(=O)N([C@H](C)CO)C[C@H]1C,-1.6,i

# Compound profiles, from the list above. Order of screens: AF4-AF9 inh, FGF22 binding
# O=C(Nc1cc(F)ccc1F)N1CCCCN2[C@H](CO)[C@@H](c3ccc(-c4cncnc4)cc3)[C@@H]2C1 as listed: -4.5, i
# Cc1noc(C)c1S(=O)(=O)Nc1ccc2c(c1)C(=O)N([C@@H](C)CO)C[C@@H](C)[C@H](CN(C)S(=O)(=O)c1ccc(F)cc1)O2 as listed: 0.7, i
# C[C@H]1CN([C@@H](C)CO)C(=O)c2cc(-c3ccc(C(=O)N(C)C)cc3)cnc2O[C@H]1CN(C)C(=O)C1CC1 as listed: -3.6, i

# Back to the main list, repeating the 5 entries before the break.
SMILES,AF4-AF9 inh,FGF22 binding
C[C@@H]1CN([C@@H](C)CO)C(=O)c2cc(NC(=O)Nc3cccc4ccccc34)ccc2O[C@H]1CN(C)C(=O)Nc1ccccc1,1.5,i
COC(=O)[C@@H]1[C@@H](CO)[C@@H]2Cn3c(ccc(-c4ccccc4F)c3=O)[C@@H]2N1C(=O)c1ccccn1,-12,i
CC(C)[C@@H](C)/C=C/[C@@H](C)[C@H]1CC[C@@H]2[C@]1(C)CCC1[C@]23C=C[C@]2(C[C@@H](O)CC[C@]12C)N(c1ccc(F)cn1)O3 (some centres not stated),2.5,i
O=C(C[C@H]1C=C[C@@H](NC(=O)Nc2ccc(C(F)(F)F)cc2)[C@@H](CO)O1)NCc1ccccn1,0.5,i
CC(=O)N(C)C[C@@H]1Oc2ncc(-c3cccnc3)cc2C(=O)N([C@H](C)CO)C[C@H]1C,-1.6,i
COc1ccc(CN(C)C[C@@H]2Oc3ccc(NC(=O)NC4CCCCC4)cc3C(=O)N([C@H](C)CO)C[C@@H]2C)cc1,-0.8,i
Cc1cc(C(=O)Nc2ccc3c(c2)C(=O)N(C)[C@@H]2CC[C@H](CC(=O)N[C@H](C)c4ccccc4)O[C@H]2CO3)no1,0.4,i
COc1ccc(NC(=O)Nc2ccc3c(c2)CC(=O)N([C@H](C)CO)C[C@H](C)[C@H](CN(C)C)O3)cc1,-1.0,i
O=Cc1coc([B-](F)(F)F)c1,-2.5,i
O=C(N[C@@H]1CC[C@@H](CCNS(=O)(=O)c2cccc(Cl)c2)O[C@H]1CO)c1ccc(F)cc1,-1.4,i
O=C1O[C@H](c2ccccc2)[C@H](c2ccccc2)N2[C@H]1[C@@H](C(=O)N1CCN(c3ncccn3)CC1)[C@]1(C(=O)Nc3ccc(C#CC4=CCCCC4)cc31)[C@H]2c1ccc(OCCO)cc1,-1.5,i
Cc1ccc(S(=O)(=O)Nc2cccc3c2O[C@@H](CN(C)Cc2ccc(-c4ccccc4)cc2)[C@H](C)CN([C@H](C)CO)C3=O)cc1,2.4,i
C[C@H]1CN([C@@H](C)CO)C(=O)Cc2cc(NC(=O)NC3CCCCC3)ccc2O[C@H]1CN(C)S(=O)(=O)c1ccc(F)cc1,1.0,i
C[C@@H]1CN([C@@H](C)CO)C(=O)c2c(c3ccccc3n2C)-c2ccccc2CO[C@H]1CN(C)C(=O)c1cc(Cl)cc(Cl)c1,2.9,i
COc1ccc(S(=O)(=O)N[C@H]2C=C[C@H](CC(=O)N3CCc4ccccc4C3)O[C@H]2CO)cc1,-1.3,i
C[C@@H](O)C#Cc1ccc2c(c1)O[C@@H](CN(C)Cc1ccc(-c3ccccc3)cc1)[C@@H](C)CN([C@@H](C)CO)S2(=O)=O,2.4,i
COCC(=O)Nc1ccc2c(c1)C(=O)N(C)C[C@@H](OC)[C@@H](C)CN(C(=O)NC(C)C)[C@@H](C)CO2,0.4,i
C[C@H](CO)N1C[C@H](C)[C@H](CN(C)C(=O)NC2CCCCC2)Oc2c(NC(=O)NC3CCCCC3)cccc2C1=O,-0.4,i
CCCN(C)C[C@@H]1OCCCC[C@@H](C)Oc2ccc(N(C)C)cc2C(=O)N([C@H](C)CO)C[C@@H]1C,2.6,i
O=C(Nc1ccc2c(c1)[C@@H]1C[C@@H](CC(=O)N3CCc4ccccc4C3)O[C@@H](CO)[C@@H]1O2)c1ccc2c(c1)OCO2,2.6,i
O=C(NC1Cc2ccccc2C1)[C@H]1[C@H](CO)[C@H]2Cn3c(cccc3=O)[C@H]2N1C(=O)c1cnccn1,-0.8,i
O=C(C[C@@H]1CC[C@H]2[C@@H](COC[C@@H](O)CN2C(=O)Cc2ccccc2)O1)NC1CCC1,-30,i
CNC[C@@H]1Oc2c(NS(=O)(=O)c3ccc(Cl)cc3)cccc2C(=O)N([C@@H](C)CO)C[C@H]1C,-2.5,i
CC(C)NC(=O)Nc1ccc2c(c1)C(=O)N([C@@H](C)CO)C[C@H](C)[C@@H](CN(C)S(=O)(=O)c1cccs1)OCCCC[C@@H](C)O2,0.3,i
CCCNC(=O)N1CC2(C1)CN(C(=O)CC)[C@@H](CO)c1[nH]c3cc(OC)ccc3c12,-2.4,i
CN1c2ccc(Br)cc2[C@@H]2[C@@H](CCN2S(=O)(=O)c2ccc(F)cc2)[C@@H]1CO,-1.1,i
C[C@@H]1CN([C@H](C)CO)C(=O)Cc2cc(NC(=O)NC3CCCCC3)ccc2O[C@H]1CN(C)Cc1ccncc1,-0.3,i
CC(C)NC(=O)Nc1cccc2c1O[C@@H](CN(C)Cc1ccc(Cl)c(Cl)c1)[C@H](C)CN([C@H](C)CO)C2=O,6.9,i
C[C@@H]1CN([C@@H](C)CO)C(=O)c2cc(NC(=O)C3CC3)ccc2O[C@@H]1CN(C)CC1CC1,-1.8,i
COc1ccc(NC(=O)N(C)C[C@@H]2Oc3c(NC(=O)c4ccc(-c5nccs5)cc4)cccc3C(=O)N([C@H](C)CO)C[C@H]2C)cc1,-2.3,i
C[C@@H]1CN([C@H](C)CO)C(=O)c2cccc(NC(=O)CCCCCC(=O)Nc3ccccc3N)c2O[C@@H]1CN(C)C,2.7,i
C[C@@H]1CCCCO[C@@H](CN(C)C(=O)Nc2ccc3c(c2)OCO3)[C@@H](C)CN([C@H](C)CO)C(=O)c2cc(NC(=O)CCC(F)(F)F)ccc2O1,1.1,i
